Screening results as filed in PubChem.
PK Bst: modulators of Bacillus stearothermophilus pyruvate kinase | 51,000 compounds, 1.2% hits | Potency, µM | partly purified Bacillus stearothermophilus pyruvate kinase, luminescence ATP production; ribose 5-phosphate activator present at AC10; in the data active means potency below about 11 µM; inconclusive means mostly about 12 µM to 25 µM; inactive means weaker than that;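 the screen sought inhibitors and activators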;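 further: potency means the concentration at half of the fitted maximal effect; scaled between full activation by ribose 5 phosphate and full inhibition by luteolin; about four in five hits inhibit and the cells do not say which; series up to 57 µM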
TsaE inh: inhibitors of E. coli YjeE (TsaE) | P0AF67 | Potency, µM | 71,000 compounds, 0.05% hits | AID 605 | purified YjeE, fluorescence polarisation of a bound ADP probe; active = well fitted falling curve; inconclusive = weaker or top-dose-only fall, or a rising curve; inactive = flat or poorly fitted curve;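 further: top concentration of the series not given in the record; excess ADP was the control for the full effect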
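Purified YjeE (10 uM) with BODIPY Texas Red-labeled ADP probe (2 uM); compounds pin-transferred, 15 min at room temperature. Binding inhibition read as decreased fluorescence polarization; ADP titration as control.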
The depositor's hits bear a star; i = inactive; ? = inconclusive; . = no result given. An excerpt (hit frequency here may not be typical).

Each structure is followed by: PK Bst, TsaE inh
O=C1NCCNC1(c1c[nH]c2ccccc12)C(F)(F)F (configuration not stated)
    ., i
CCCOC(=O)C1[C@H]2C(=O)N(CC3CCCO3)C[C@]23C=C[C@H]1O3 (some centres not stated)
    >57, i
CC(Sc1sc(=S)sc1SC(C)C(=O)O)C(=O)O (configuration not stated)
    >57, i
CCN(CC)CCCN1C(=O)C(=O)/C(=C(/O)c2ccc(C)cc2)C1c1ccccn1 (configuration not stated)
    >25.6, .
CCOc1ccc(NC(=O)CSc2nnc(-c3ccncc3)n2CC2CCCO2)cc1 (configuration not stated)
    >57, i
CCN(CC)CCN1C(=O)C(O)=C(C(C)=O)C1c1ccc(OC)c(OC)c1 (configuration not stated)
    >25.6, .
CCCn1c(C)nc2c(NCCN3CCOCC3)nc(C)nc21
    ., i
COc1ccc(C2C(C(=O)c3sc(C)nc3C)=C(O)C(=O)N2CCN(C)C)cc1 (configuration not stated)
    >57, i
Cn1c(=O)c(-c2ccccc2)nc2cnc(Oc3ccccc3)nc21
    ., i
CCC1(C(=O)OC)NC(c2ccccc2OC)C2C(=O)N(C)C(=O)C21 (configuration not stated)
    >57, i
COc1cccc(/C=c2\sc3nc(-c4cccs4)nn3c2=O)c1OC
    >57, i
COC(=O)c1ccc(CSc2nnc(-c3ccncc3)n2Cc2ccccc2)o1
    >57, i
[O-][n+]1onc2c1CCc1nnc(-c3ccccc3)cc1-2
    >57, i
CC(=O)CC(=O)Nc1ccc2ccccc2c1
    ., i
Nc1c(C(=O)NCCN2CCOCC2)c2nc3ccccc3nc2n1-c1ccc2c(c1)OCO2
    >57, i
CC1Oc2ccccc2N(CC(=O)NCCc2ccccc2)C1=O (configuration not stated)
    >57, i
O=C(Cn1cnc2c(nnn2Cc2ccc(Cl)cc2)c1=O)NCc1ccco1
    ., i
Cc1cc(C(=O)COc2ncnc3sccc23)c(C)n1C1CC1
    >57, i
CC(C)C(c1nnnn1Cc1ccccc1)N(Cc1ccco1)Cc1cccs1 (configuration not stated)
    >57, i
COC(=O)c1cc(S(=O)(=O)N2CCOCC2)c(N2CCOCC2)cc1N1CCOCC1
    >25.6, .
CCn1c(SCC(=O)N2CCCC2)nc2c(c1=O)SC(C)C2 (configuration not stated)
    ., i
CS(=O)(=O)N(CC(=O)NCc1ccco1)c1ccc(Cl)c(C(F)(F)F)c1
    ., i
CCCCOn1c(C)c(C(=O)OCC)c2c3no[n+]([O-])c3ccc21
    >57, i
CCOC(=O)N1CCN(CC(=O)c2ccc3c(c2)CCN3)CC1
    >57, i
COc1nc(Cl)nc(Cl)c1Cl (tested in a mixture with another compound)
    ., i
COc1ccc(-c2nnc3ccc(SCC(=O)NCC4CCCO4)nn23)cc1 (configuration not stated)
    >57, i
COc1cc(C2C(C(=O)Nc3ccc(F)cc3)=C(C)Nc3nc(CCCO)nn32)cc(OC)c1OC (configuration not stated)
    ., i
COc1ccc(OC)c(S(=O)(=O)N2CCCCCC2)c1
    >57, i
Cc1ccc(S(=O)(=O)N2CCCC2C(=O)NC2=NCCS2)cc1 (configuration not stated)
    ., i
O=C(Nc1nc2c(ccc3ccccc32)s1)c1ccco1
    ., i

Among those listed so far, these have fluorine.
Each structure is followed by: PK Bst, TsaE inh
O=C1NCCNC1(c1c[nH]c2ccccc12)C(F)(F)F (configuration not stated)
    ., i
CS(=O)(=O)N(CC(=O)NCc1ccco1)c1ccc(Cl)c(C(F)(F)F)c1
    ., i
COc1cc(C2C(C(=O)Nc3ccc(F)cc3)=C(C)Nc3nc(CCCO)nn32)cc(OC)c1OC (configuration not stated)
    ., i

(further entries)
Each structure is followed by: PK Bst, TsaE inh
CCOC(=O)c1ccc(CNC(=O)CSc2nnnn2-c2ccc(Cl)cc2)o1
    >57, i
CN(C)C(=O)C(CCN1CCC(O)(c2ccc(Cl)cc2)CC1)(c1ccccc1)c1ccccc1
    ., i
CCOC(=O)N1CCC(NC(=O)c2ccc3c(c2)N(C)CCS3)CC1
    >57, i
O=C(Nc1ccc2c(c1)OCO2)c1cccs1
    ., i
O=C(c1ccc(CS(=O)(=O)c2ccc(Br)cc2)o1)N1CCCCCC1
    ., i
COc1ccccc1S(=O)(=O)n1cc(Cc2ccccc2)c(N)n1
    >57, i
Cn1c(N)c(C(=O)COC(=O)C2(c3ccccc3F)CCCC2)c(=O)n(C)c1=O
    >57, i
CCCCOc1ccc(-c2c(C#N)c(N)nc(SCC(N)=O)c2C#N)cc1
    >57, ?
COc1ccc(/C=C/c2cc(OC)cc(=O)o2)cc1
    ., i
Cc1ccc(-c2ccc(=O)[nH]n2)cc1
    ., i
Cc1ccc2c(c1)N(C(C)C(=O)NCCc1ccccc1)C(=O)CO2 (configuration not stated)
    ., i
Cc1cc(C)nc(N2CCCC(C(=O)NCc3cccs3)C2)n1 (configuration not stated)
    >57, i
COCC(=O)N1CCC[C@@]2(CCN(C(=O)Nc3ccc(OC)cc3)C2)C1
    ., i
CCc1cc(=O)oc2cc(OC(C)=O)cc(OC(C)=O)c12
    >57, i
O=C(CN1c2cccc3cccc(c23)S1(=O)=O)NCc1ccc2c(c1)OCO2
    ., i
O=C1CC(N2CCN(c3ccccc3)CC2)C(=O)N1c1ccc2c(c1)OCCO2 (configuration not stated)
    >57, i
CCCn1c(=O)n(C)c(=O)c2c(SCc3cc(C(C)=O)ccc3OCC)nc(C3CC3)nc21
    >57, i
COc1ccc(-c2c(C)oc3c(CN4CCCCC4C)c(O)ccc3c2=O)cc1OC (configuration not stated)
    ., i
CCOC(=O)c1oc2nc(C)c3c(c2c1N)CC(C)(C)OC3
    >57, i
Cc1ccc(NC(=O)Cn2nc(C)c3ccccc3c2=O)cc1F
    >57, i
O=C(c1ccccc1Cl)N1CCc2ccccc2C1
    >57, i
COc1ccc(N(CC(=O)Nc2cccc(C)c2C)S(=O)(=O)c2c(C)n[nH]c2C)cc1
    >57, i
CCN(CCCNC(=O)COc1cc(=O)n(CC)c2ccccc12)c1ccccc1
    ., i
CC(C)(C)NC(=O)CN1CCC(O)(c2ccccc2)CC1
    >57, i
O=C(CN1C(=O)c2ccccc2S1(=O)=O)NCc1ccccc1Cl
    ., i
CCOC(=O)C1C(=O)NC(C)C1c1ccccc1 (configuration not stated)
    >57, i
CCCCCSc1nnc(-c2cc(Br)ccc2N)c(=O)[nH]1
    >57, i
COCC(=O)N1CCC2(CC1)CN(C(=O)Nc1cccc(C#N)c1)C2
    ., i
COC(=O)c1c(NC(=O)c2ccc(Br)s2)sc2c1CCC2
    >57, i
CCCCNC(=O)CN1C(=O)C(CC)Oc2ccc(Cl)cc21 (configuration not stated)
    >57, i

(further entries)
Structure	PK Bst	TsaE inh
CC1CCN(c2oc(-c3ccccc3F)nc2C#N)CC1	.	i
Cn1c(NC(=O)CC(C)(C)C)cc(=O)n(C)c1=O	.	i
O=C(COc1nnc2ccccn12)N1CCN(S(=O)(=O)c2ccccc2)CC1	>57	i
CC1CN(S(=O)(=O)c2ccc(NC(=O)c3cc(-c4ccccc4O)n[nH]3)cc2)CC(C)O1 (configuration not stated)	>57	i
Clc1ccccc1CNc1ncnc2nc[nH]c12	.	i
COc1cccc(NC(=O)N2CCCC2C(=O)NC(C)C)c1 (configuration not stated)	>57	i
CCOC(=O)c1cc(NC(=O)c2c(C)noc2C)cc(C(=O)OCC)c1	>57	i
CCCC1(CCC)NC(=O)N(CC(=O)Nc2cccc(OC)c2)C1=O	>57	i
N#Cc1nc(-c2ccccc2Cl)oc1N1CCCCC1	>11.4	.
Cc1ccc(C(C(=O)NC2CCCC2)N(Cc2ccc(F)cc2)C(=O)c2csnn2)o1 (configuration not stated)	>57	i
COC(=O)C1=C(C)N(Cc2ccco2)C(=O)C1	>57	i
NCCc1nc(-c2nc(C(=O)O)cs2)cs1	.	i
CCSC1=C(C#N)C(c2ccc(C)s2)CC(=O)N1 (configuration not stated)	.	i
CCOC(=O)c1cnc2c(C)cccc2c1NCc1ccco1	.	i
CCCCN1C(=O)C(O)=C(C(C)=O)C1c1ccc(OC)cc1OC (configuration not stated)	>25.6	.
COc1ccccc1N1CCN(C[C@@H](C(=O)NC(C)(C)C)c2ccccc2)CC1	.	i
Cc1ccc(N(C(=O)Cn2nnc3ccccc32)C(C(=O)NCc2ccco2)c2cccnc2)cc1 (configuration not stated)	>57	i
Cc1ccc2c(c1)c1c(n2CC(O)Cn2nc(C)c(Br)c2C)C(=O)CCC1 (configuration not stated)	>57	i
Clc1ccc(CN2CCCN(Cc3ccc(Cl)cc3)C2c2cc3ccccc3c3ccccc23)cc1	.	i
CCn1nnc(NC(=O)c2c(OC)cccc2OC)n1	>57	i
COc1ccc(C2CC(c3cccc(C)c3)n3nc(N)nc3N2)cc1 (configuration not stated)	.	i
CC(C(=O)NCc1ccccc1)N1C(=O)C2CC=C(Cl)CC2C1=O (configuration not stated)	>57	i
CN(C)CCN1C(=O)C(O)=C(C(=O)c2ccco2)C1c1ccccc1F (configuration not stated)	>57	i
COc1ccc(N2CCN(C(=O)c3ccc(CNc4c(N5CCOCC5)c(=O)c4=O)cc3)CC2)cc1	.	i
CC1CN(c2oc(-c3ccco3)nc2S(=O)(=O)c2ccccc2)CC(C)O1 (configuration not stated)	>57	i
N/C(CC/C(N)=N/O)=N\O	.	i
COc1ccc(NC(=O)CS(=O)CC(=O)NCc2cccc(C(F)(F)F)c2)cc1 (configuration not stated)	>57	i
COc1ccccc1CNC(=O)COC(=O)c1ccc(S(=O)(=O)N2CCCC2)cc1	>57	i
COc1ccc(N2C(=O)NC3CC2(C)Oc2ccc(Cl)cc23)cc1OC (configuration not stated)	?	i
CCOc1ccc(NC(=O)CCC(=O)OC)cc1	.	i
Cc1cc(NS(=O)(=O)c2ccc(NC(=O)CCc3ccccc3)cc2)no1	>57	i
COC(=O)[C@@]1(Cc2ccc(OC)cc2)[C@H]2c3cc(C(=O)N(C)C)n(CCF)c3C[C@H]2CN1C(=O)c1ccccc1	.	i
CCn1c(Cc2ccccc2)nnc1SCC(=O)Nc1cc(C)on1	>57	i
COCCN1Cc2cccc(C(=O)NC3CCCCCC3)c2C1=O	>57	i
COc1cc(-c2nnc(SCC(=O)c3ccccc3)o2)cc(OC)c1OC	>57	i
Cc1onc(-c2ccccc2Cl)c1C(=O)N1CCc2ccccc21	.	i
Cn1nnnc1SCCNCC#Cc1ccccc1	>57	i
CCOc1ccc(NC(=O)CSc2nc3cccnc3n2CC)cc1	>57	i
CCc1nc(NCCN2CCOCC2)c(C#N)c2c1CCCC2	>25.6	.
CCCC(=O)NCCc1c2n(c3ccc(OC)cc13)CCCc1ccccc1-2	.	i
O=C(Cn1[nH]c(=O)c2ccccc2c1=O)NCc1cccnc1	>57	i
CC1=C(C(=O)OC2CCCCCCC2)C(c2cccc(O)c2)NC(=O)N1 (configuration not stated)	.	i
COC(=O)c1cc2nc(-c3ccc(OC)c(OC)c3)cc(C(F)(F)F)n2n1	.	i
COc1ccc(N2CCN(C(=O)c3ccc4c(=O)n(CC5CCCO5)c(=O)[nH]c4c3)CC2)cc1 (configuration not stated)	>57	i
N#Cc1nc(COc2ccccc2F)oc1NCc1ccc(F)cc1	.	i

Profiles from above.
COCCN1Cc2cccc(C(=O)NC3CCCCCC3)c2C1=O is listed as PK Bst: >57; TsaE inh: i
CCn1c(Cc2ccccc2)nnc1SCC(=O)Nc1cc(C)on1 is listed as PK Bst: >57; TsaE inh: i

Returning to the listing, repeating the 6 entries before the break.
Structure	PK Bst	TsaE inh
CCCC(=O)NCCc1c2n(c3ccc(OC)cc13)CCCc1ccccc1-2	.	i
O=C(Cn1[nH]c(=O)c2ccccc2c1=O)NCc1cccnc1	>57	i
CC1=C(C(=O)OC2CCCCCCC2)C(c2cccc(O)c2)NC(=O)N1 (configuration not stated)	.	i
COC(=O)c1cc2nc(-c3ccc(OC)c(OC)c3)cc(C(F)(F)F)n2n1	.	i
COc1ccc(N2CCN(C(=O)c3ccc4c(=O)n(CC5CCCO5)c(=O)[nH]c4c3)CC2)cc1 (configuration not stated)	>57	i
N#Cc1nc(COc2ccccc2F)oc1NCc1ccc(F)cc1	.	i
Cn1nnnc1SCC(=O)NCC(=O)c1ccccc1	>25.6	.
C=CCOc1cccc(C2c3c(oc4ccccc4c3=O)C(=O)N2c2ccccn2)c1 (configuration not stated)	.	i
O=C(Nc1ccc(F)c(F)c1)NC1CCCCC1	>57	i
CCOc1ccccc1OCC(=O)Nc1ccc(N2CCCCC2)cc1	>57	i
Cc1ccc(-n2ncc3c(=O)n(Cc4ccccn4)cnc32)cc1C	>57	i
O=C(c1ccco1)N1CCN(C(=O)C2CC(c3ccc(F)cc3)=NO2)CC1 (configuration not stated)	.	i
Nc1n[nH]c(-c2ccc(F)cc2)n1	.	i
COc1ccc(Cl)cc1C(=O)CSc1nnnn1C1CCCC1	>57	i
CC(C)Oc1ccc(CC2CC(=O)NC2=O)cc1 (configuration not stated)	>57	i
COc1ccc(-c2cc(C(=O)N3CCCCC3)no2)cc1OC	i	i
COc1ccc(-c2onc(C)c2-c2ccc(C(=O)OC(C)C)o2)c(O)c1	>57	i
C=C(C)CSc1nc2c(cc1C#N)CCC2	.	i
CCOc1ccccc1C(=O)NC(C(=O)OCC(=O)Nc1nnc(-c2ccccc2)o1)C(C)C (configuration not stated)	>57	i
O=C1OC(O)C(C(Cl)Cl)=C1Cl (configuration not stated)	.	i
CC(=O)Oc1ccc(C(=O)Nc2nccs2)cc1	.	i
O=C(NCC1CCCO1)c1nn2cccnc2c1Cl (configuration not stated)	>57	i
